PABP FP inh = PABP poly(A) RNA binding inhibitors, primary screen, biochemical, fluorescence polarization, uHTS; Polyadenylate-binding protein 1 (Homo sapiens), P11940; inhibition, % at 35 µM; hit rate 1% among 290,000;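 active means 50% or more with normal probe brightness, or confirmed in later tests; about a fifth of its hits are not listed in these tables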;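 further: calls also rest on retests at 20 µM and on dose response follow-up; controls were probe without protein and protein plus probe with vehicle; some compounds called inactive have numbers as strong as hits; many hits fall short of the cut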
Target sequence (P11940 whole entry, looked up): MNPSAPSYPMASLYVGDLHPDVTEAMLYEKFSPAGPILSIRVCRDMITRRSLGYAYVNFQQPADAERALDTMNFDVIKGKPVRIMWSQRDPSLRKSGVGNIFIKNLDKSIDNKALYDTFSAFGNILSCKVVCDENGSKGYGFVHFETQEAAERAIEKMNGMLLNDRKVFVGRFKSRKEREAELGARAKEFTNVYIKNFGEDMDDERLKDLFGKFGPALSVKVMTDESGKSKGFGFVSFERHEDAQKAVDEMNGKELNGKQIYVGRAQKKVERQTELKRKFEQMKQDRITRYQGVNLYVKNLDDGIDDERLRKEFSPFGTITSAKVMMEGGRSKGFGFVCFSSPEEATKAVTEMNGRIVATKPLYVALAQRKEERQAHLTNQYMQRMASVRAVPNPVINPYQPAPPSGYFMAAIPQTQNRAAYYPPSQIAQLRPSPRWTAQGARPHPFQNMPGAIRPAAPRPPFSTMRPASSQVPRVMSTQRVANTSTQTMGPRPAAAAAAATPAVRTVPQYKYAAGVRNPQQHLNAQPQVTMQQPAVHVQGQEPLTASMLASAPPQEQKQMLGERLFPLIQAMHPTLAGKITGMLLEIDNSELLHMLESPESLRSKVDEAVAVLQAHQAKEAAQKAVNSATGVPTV
Rce1 inhib = yeast Rce1p protease inhibitors, primary screen, biochemical, fluorescence, cell-free homogeneous; hit rate 0.27% among 290,000; yeast membranes, quenched prenylated peptide cleavage fluorescence; AID 2563, 2010; calls only;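 active means fall in fluorescence gain of 50% or more versus controls, with final raw signal at or below 3038400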;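 further: plate controls were neutral control wells for no effect and wells lacking membranes for full effect; tested at 10 µM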
CSC inhib = cancer stem cell viability inhibitors, primary screen, luminescence; cancer stem cell-like cells viability; inhibition, % at 7.5 µM; hit rate 1.1% among 300,000; AID 2717, 2010;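 active means mean at 75% or more and at least half the replicates too; tested in HMLE shEcad cells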;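 further: 0% = median of negative and 100% = median of positive control wells; the first replicate is given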
UUG fidelity = modulators of yeast start codon fidelity, primary screen, whole organism, S. cerevisiae, single point, plate reader; S. cerevisiae UUG-firefly luciferase reporter, luminescence/redox ratio; activity score, % at 18.7 µM; hit rate 0.13% among 350,000; AID 602363, 2012;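 active means replicate mean at a twofold rise or more, about +100% in these data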;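 further: firefly luciferase made from a UUG start codon reports start codon fidelity; reporter light over untreated wells divided by growth signal over untreated wells; some hits fall short of that in this replicate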
eIF4H FP inh = human eIF4H binding inhibitors, primary screen, translation initiation inhibitor project, biochemical, uHTS, fluorescence polarization; eIF4H fluorescence polarization binding assay; Eukaryotic translation initiation factor 4H (Homo sapiens), Q15056; AID 2012, 2009; inhibition, % at 35 µM; hit rate 0.94% among 290,000;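 active means 50% or more with normal probe brightness, or confirmed in later tests; about a fifth of its hits are not listed in these tables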;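 further: calls also rest on retests at 20 µM and on dose response follow-up; 0% = protein and probe with vehicle and 100% = probe without protein; strong numbers were not always called active; many hits fall short of the cut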
HIV Env fusion = inhibitors of HIV-1 Env-driven cell-cell fusion, primary screen, HeLa-JRFL effector, CEM21 target cells, luciferase; hit rate 1.1% among 360,000; AID 651610, 2012; inhibition, % at 12.3 µM;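 active means mean replicate inhibition score of at least 50 and every replicate individually at or above 50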;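 further: 0% = plate neutral controls and 100% = maraviroc near 300 nM; one replicate is shown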
MT1-MMP act inh = blockers of MT1-MMP proenzyme processing, primary screen, HT1080 RFP-PRO-GFP cells, GFP/RFP fluorescence; Matrix metalloproteinase-14 (Homo sapiens), P50281; GFP/RFP ratio fluorescence, overnight; percent of plate control window, DMSO zero; GFP/RFP ratio change, % at 20 µM; hit rate 0.061% among 360,000;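 active means GFP/RFP ratio change of at least 30% with cell ATP level not reduced by more than half and red fluorescence within 50% of control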; further: strong numbers were not always called active
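Compound: 20 µM single dose, 1% DMSO / System: HT1080 RFP-PRO-GFP cells / Controls: DMSO and RFP-L50D-GFP cell wells / Read-out basis: GFP/RFP fluorescence ratio / Schedule: overnight compound exposure at 37 °C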
MT1-MMP act inh RFP = second read-out of MT1-MMP act inh, no call of its own (marks repeat the call); RFP signal change, %; measured here: RFP expression control read;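 0 = vehicle wells; hits needed this value within 50% of zero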
* marks the source's active call; other numbers are inactive results.

How did O=C(NCc1ccccc1)c1cc(C2CCCCN2S(=O)(=O)Cc2ccccc2)on1 (stereo not drawn) do in these assays?
UUG fidelity: -2; HIV Env fusion: 3; MT1-MMP act inh: -2; MT1-MMP act inh RFP: -4

How did Cn1ccnc1C(=O)Cc1ccc([N+](=O)[O-])cc1 do in these assays?
Rce1 inhib: inactive; CSC inhib: -3; UUG fidelity: -9; HIV Env fusion: 5; MT1-MMP act inh: 4; MT1-MMP act inh RFP: -3

What do the screens show for `O=C1CC2(CCCCC2)Oc2ccc(O)cc21`?
PABP FP inh: 2; Rce1 inhib: inactive; CSC inhib: 2; UUG fidelity: -4; eIF4H FP inh: -6; HIV Env fusion: -95; MT1-MMP act inh: -3; MT1-MMP act inh RFP: -5

How did O=C1CNC(=S)N1c1nc2ccccc2s1 do in these assays?
PABP FP inh: -19; Rce1 inhib: inactive; CSC inhib: -3; UUG fidelity: -27; eIF4H FP inh: 18; HIV Env fusion: -373; MT1-MMP act inh: -1; MT1-MMP act inh RFP: 2

How did Cc1ccc(OC(=O)c2ccc(C)c([N+](=O)[O-])c2)cn1 do in these assays?
PABP FP inh: 11; Rce1 inhib: inactive; CSC inhib: -7; UUG fidelity: -4; eIF4H FP inh: -15; HIV Env fusion: 12; MT1-MMP act inh: 2; MT1-MMP act inh RFP: 6

What do the screens show for `CN(C(=O)c1cccc(OC2CCN(S(=O)(=O)N(C)C)CC2)c1)C1CCOC1` (stereo not drawn)?
PABP FP inh: 18; Rce1 inhib: inactive; UUG fidelity: 2; eIF4H FP inh: 6; HIV Env fusion: -17; MT1-MMP act inh: 1; MT1-MMP act inh RFP: 1

Results for COC(C[C@@H]1O[C@@H]1[C@H](O)[C@@H](C)OCc1ccccc1)OC ?
PABP FP inh: 6; Rce1 inhib: inactive; CSC inhib: 9; UUG fidelity: 7; eIF4H FP inh: -3; HIV Env fusion: -4; MT1-MMP act inh: 3; MT1-MMP act inh RFP: 4

How did COC(=O)C1=C(C)N(Cc2ccccc2)C(=NCc2ccccc2)N[C@H]1c1cccc(F)c1 do in these assays?
PABP FP inh: 17; Rce1 inhib: inactive; CSC inhib: 28; UUG fidelity: 10; eIF4H FP inh: -3; MT1-MMP act inh: -3; MT1-MMP act inh RFP: -7

What do the screens show for `CC(C)Sc1nc2c(cnn2-c2ccccc2)c(=O)[nH]1`?
PABP FP inh: -14; Rce1 inhib: inactive; CSC inhib: 1; UUG fidelity: -15; eIF4H FP inh: -5; HIV Env fusion: 5; MT1-MMP act inh: 1; MT1-MMP act inh RFP: 2

Results for COC(=O)Cc1ccc(NC(=O)c2ccccc2Cl)cc1 ?
PABP FP inh: -12; Rce1 inhib: inactive; CSC inhib: 0; eIF4H FP inh: -4; HIV Env fusion: -7; MT1-MMP act inh: 4; MT1-MMP act inh RFP: 7

How did CCN(CC)S(=O)(=O)c1ccc(OC)c(NC(=O)c2cn(CC)c3nc(C)ccc3c2=O)c1 do in these assays?
PABP FP inh: 4; Rce1 inhib: inactive; CSC inhib: 15; eIF4H FP inh: 6; HIV Env fusion: 10; MT1-MMP act inh: 1; MT1-MMP act inh RFP: 2

Results for N=C1S/C(=C\c2cn[nH]c2-c2ccc(F)cc2)C(=O)N1c1ccccc1F ?
PABP FP inh: 11; Rce1 inhib: inactive; CSC inhib: 73; eIF4H FP inh: -4; MT1-MMP act inh: 1; MT1-MMP act inh RFP: -17

How did O=C(c1cc(C2CCCCN2S(=O)(=O)c2cccs2)on1)N1CCOCC1 (stereo not drawn) do in these assays?
UUG fidelity: -8; HIV Env fusion: 15; MT1-MMP act inh: 1; MT1-MMP act inh RFP: -4

What do the screens show for `O=C(Nc1ccc2c(c1)oc1ccccc12)c1ccncc1`?
PABP FP inh: -3; Rce1 inhib: inactive; CSC inhib: 7; UUG fidelity: -6; eIF4H FP inh: -1; HIV Env fusion: -30; MT1-MMP act inh: 9; MT1-MMP act inh RFP: -1

Results for Cc1ccc(NC(=O)C2COc3ccccc3O2)cc1C (stereo not drawn) ?
PABP FP inh: 6; Rce1 inhib: inactive; CSC inhib: 2; UUG fidelity: -4; eIF4H FP inh: -10; MT1-MMP act inh: -2; MT1-MMP act inh RFP: 2

What do the screens show for `CC(=O)Nc1ccc(-c2ccnc3c2CC(C)(C(=O)NCCc2ccccc2)O3)cc1` (stereo not drawn)?
UUG fidelity: 10; HIV Env fusion: 20; MT1-MMP act inh: -7; MT1-MMP act inh RFP: -7

How did Cc1ccc(C)c2sc(NC(=O)c3ccc(N4C(=O)CCC4=O)cc3)nc12 do in these assays?
PABP FP inh: 2; Rce1 inhib: inactive; CSC inhib: 1; UUG fidelity: -8; eIF4H FP inh: 4; HIV Env fusion: -9; MT1-MMP act inh: 3; MT1-MMP act inh RFP: 5

Results for COC(CNC(=O)CNC(=S)N(Cc1ccccc1)Cc1cccs1)OC ?
PABP FP inh: -9; Rce1 inhib: inactive; CSC inhib: -3; UUG fidelity: -15; eIF4H FP inh: -1; HIV Env fusion: 0; MT1-MMP act inh: 1; MT1-MMP act inh RFP: 0

What do the screens show for `Cc1cccnc1NC(=S)NCCc1ccccc1`?
PABP FP inh: 0; Rce1 inhib: inactive; CSC inhib: 7; eIF4H FP inh: -3; HIV Env fusion: -39; MT1-MMP act inh: 0; MT1-MMP act inh RFP: -5

How did Cc1ccc(CNC(=O)C2CCCN2S(=O)(=O)c2ccc(Cl)cc2)cc1 (stereo not drawn) do in these assays?
PABP FP inh: 8; Rce1 inhib: inactive; CSC inhib: -2; UUG fidelity: -7; eIF4H FP inh: 2; HIV Env fusion: 13; MT1-MMP act inh: 4; MT1-MMP act inh RFP: -2

What do the screens show for `COc1cc(/C=C2/C(=N)N3C(SC)=NSC3=NC2=O)ccc1OC(=O)c1ccco1`?
PABP FP inh: -2; Rce1 inhib: inactive; CSC inhib: -16; UUG fidelity: 1; eIF4H FP inh: 12; HIV Env fusion: -21; MT1-MMP act inh: 0; MT1-MMP act inh RFP: 13

How did COCc1cc(=O)[nH]c(Sc2c(-c3ccccc3)c3ccc(Cl)cc3[nH]c2=O)n1 do in these assays?
PABP FP inh: 2; Rce1 inhib: inactive; UUG fidelity: -9; eIF4H FP inh: -3; HIV Env fusion: 11; MT1-MMP act inh: 0; MT1-MMP act inh RFP: 4

How did CC(OC(=O)CNC(=O)c1ccc2c(c1)OCO2)C(=O)NCCC1=CCCCC1 (stereo not drawn) do in these assays?
PABP FP inh: 14; CSC inhib: -8; UUG fidelity: -10; eIF4H FP inh: -11; MT1-MMP act inh: -5; MT1-MMP act inh RFP: -1

What do the screens show for `Cc1ccccc1N1C(=O)[C@@H]2Cc3ccccc3CN2C1=O`?
PABP FP inh: 11; Rce1 inhib: inactive; CSC inhib: -6; UUG fidelity: -5; eIF4H FP inh: -2; HIV Env fusion: -27; MT1-MMP act inh: 0; MT1-MMP act inh RFP: 9

Results for CCN1C[C@@H]2[C@@H]3C(=O)N(Cc4ccccc4)C(=O)[C@@H]3[C@](C)(C1=O)N2C(=O)c1ccc(Cl)c(Cl)c1 ?
UUG fidelity: 15; HIV Env fusion: -13; MT1-MMP act inh: -6; MT1-MMP act inh RFP: -1

Results for CCc1cc(=O)oc2cc(OCC(=O)N3CCC[C@H]3C(=O)O)ccc12 ?
PABP FP inh: 8; CSC inhib: -5; UUG fidelity: -11; eIF4H FP inh: 4; MT1-MMP act inh: 2; MT1-MMP act inh RFP: 4

How did Cc1cccc2nc(CSc3nc4ccc([N+](=O)[O-])cc4[nH]3)cn12 do in these assays?
PABP FP inh: 11; Rce1 inhib: inactive; CSC inhib: -4; UUG fidelity: -18; eIF4H FP inh: 8; MT1-MMP act inh: 5; MT1-MMP act inh RFP: 0

What do the screens show for `Cc1nnc(SCc2ccccc2C#N)n1-c1ccccc1`?
PABP FP inh: -2; Rce1 inhib: inactive; CSC inhib: -10; UUG fidelity: -5; eIF4H FP inh: -3; MT1-MMP act inh: 3; MT1-MMP act inh RFP: 1

Results for CCCCC(=O)Nc1ncc2c(n1)CC(C)(C)CC2=O ?
PABP FP inh: 3; Rce1 inhib: inactive; CSC inhib: 6; UUG fidelity: 0; eIF4H FP inh: 2; MT1-MMP act inh: 4; MT1-MMP act inh RFP: 7

How did COc1cc(OC)cc(C(=O)N2CCN(Cc3ccc4c(c3)OCO4)CC2)c1 do in these assays?
PABP FP inh: 15; CSC inhib: -10; UUG fidelity: 6; eIF4H FP inh: 6; HIV Env fusion: 3; MT1-MMP act inh: 0; MT1-MMP act inh RFP: -1

Results for COc1ccc(/C=C(/NC(=O)c2ccc(C)cc2)C(=O)NCC2CCCO2)cc1 (stereo not drawn) ?
PABP FP inh: 8; Rce1 inhib: inactive; CSC inhib: -4; UUG fidelity: -2; eIF4H FP inh: -3; HIV Env fusion: 9; MT1-MMP act inh: -4; MT1-MMP act inh RFP: -1

What do the screens show for `CCCC(/C=C/c1ccc(OC(C)=O)cc1)=C1/c2ccccc2C(=O)N1c1ccccc1`?
CSC inhib: 112*; UUG fidelity: -13; HIV Env fusion: -18; MT1-MMP act inh: -4; MT1-MMP act inh RFP: 1

How did CC1CCC(NC(=O)COc2ccc(C(=O)c3ccccc3)cc2)CC1 (stereo not drawn) do in these assays?
PABP FP inh: -4; Rce1 inhib: inactive; CSC inhib: -2; eIF4H FP inh: -8; HIV Env fusion: -4; MT1-MMP act inh: 0; MT1-MMP act inh RFP: -24

How did CN(CC(=O)Nc1nc2ccccc2s1)S(=O)(=O)c1ccc(Cl)cc1 do in these assays?
PABP FP inh: -3; Rce1 inhib: inactive; CSC inhib: 3; UUG fidelity: 8; eIF4H FP inh: 1; HIV Env fusion: -34; MT1-MMP act inh: -3; MT1-MMP act inh RFP: -4

What do the screens show for `CCCn1c(N)c(C(=O)CSc2nnc(-c3c[nH]c4ccccc34)n2C2CC2)c(=O)[nH]c1=O`?
CSC inhib: 1; UUG fidelity: -15; HIV Env fusion: -4; MT1-MMP act inh: 1; MT1-MMP act inh RFP: 4

Results for Cc1nc2cccc(C)n2c(=O)c1Cl ?
PABP FP inh: -2; Rce1 inhib: inactive; CSC inhib: -5; eIF4H FP inh: 6; MT1-MMP act inh: 2; MT1-MMP act inh RFP: 4

What do the screens show for `C(=C\c1ccccc1)/CN1CCN(C(c2ccnc3ccccc23)c2nnnn2C2CCCCC2)CC1` (stereo not drawn)?
UUG fidelity: -1; HIV Env fusion: -70; MT1-MMP act inh: -1; MT1-MMP act inh RFP: -3

How did CC1(C(=O)NS(=O)(=O)c2cccc(F)c2)CCN1C(=O)Cc1ccc(-c2ccccc2)cc1 (stereo not drawn) do in these assays?
UUG fidelity: 17; HIV Env fusion: 4; MT1-MMP act inh: 3; MT1-MMP act inh RFP: -6

Source: PubChem BioAssay
